Screens deposited in PubChem BioAssay by several laboratories.
YopH PTP inh: YopH tyrosine phosphatase inhibitors, primary screen, biochemical, fluorescence Ex485/Em525; YopH tyrosine phosphatase [Yersinia enterocolitica]; inhibition, %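 (about 10 µM by stock and volumes)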; actives 0.16% (n = 140,000); AID 898, 2007;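 active = inhibition of 50% or more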;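 also: controls were vehicle for no effect and minimum signal wells for full effect; inactives centre near -20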
Mtb H37Rv: M. tuberculosis H37Rv growth inhibitors, H37Rv strain (AID 1626) | M. tuberculosis H37Rv growth inhibition; higher % means a stronger effect | actives 0.95% (n = 220,000) | one-dose inhibition, % at 10 µM; IC50 in µM for titrated hits;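 active = confirmed in a dose series; inconclusive = inhibition above 80% but not taken into the dose series; inactive = below 80% or under 30% at every dose of the series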;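 also: bacteria incubated seven days before Alamar blue readout; 0% = bacteria only wells and 100% = bacteria with antibiotic wells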
Mtb betalactam: beta-lactam sensitization of Mtb H37Rv, H37Rv | M. tuberculosis H37Rv growth with meropenem, percent inhibition; hits of this screen are not shown here | AID 434955, 2010 | actives 0.27% (n = 330,000) | inhibition, % at 25 µM;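 active = about 74% or more and at least 40 points above the plate without the antibiotic, then above 30% in a dose series; inconclusive = first-round hits that could not be retested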;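 also: growth measured after seven days incubation then overnight dye step; 0% = bacteria only wells and 100% = bacteria with antibiotic; twin plates without the antibiotic show which effects depend on it; some results filed as inactive read as strong as hits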
RecA splice inh: Mtb RecA intein splicing inhibitors, primary screen, biochemical, fluorescence, HTS. actives 0.75% (n = 290,000). cell-free RecA intein splicing. Protein RecA (Mycobacterium tuberculosis (strain ATCC 25618 / H37Rv)), P9WHJ3. inhibition, %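 (about 9 µM by stock and volumes)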. AID 2221, 2009; in the data active = inhibition above about 30%; inconclusive = no clear call, values can overlap the other calls;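 also: 0% = vehicle wells and 100% = reference inhibitor control wells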
Target sequence (P9WHJ3 whole entry, looked up, canonical isoform): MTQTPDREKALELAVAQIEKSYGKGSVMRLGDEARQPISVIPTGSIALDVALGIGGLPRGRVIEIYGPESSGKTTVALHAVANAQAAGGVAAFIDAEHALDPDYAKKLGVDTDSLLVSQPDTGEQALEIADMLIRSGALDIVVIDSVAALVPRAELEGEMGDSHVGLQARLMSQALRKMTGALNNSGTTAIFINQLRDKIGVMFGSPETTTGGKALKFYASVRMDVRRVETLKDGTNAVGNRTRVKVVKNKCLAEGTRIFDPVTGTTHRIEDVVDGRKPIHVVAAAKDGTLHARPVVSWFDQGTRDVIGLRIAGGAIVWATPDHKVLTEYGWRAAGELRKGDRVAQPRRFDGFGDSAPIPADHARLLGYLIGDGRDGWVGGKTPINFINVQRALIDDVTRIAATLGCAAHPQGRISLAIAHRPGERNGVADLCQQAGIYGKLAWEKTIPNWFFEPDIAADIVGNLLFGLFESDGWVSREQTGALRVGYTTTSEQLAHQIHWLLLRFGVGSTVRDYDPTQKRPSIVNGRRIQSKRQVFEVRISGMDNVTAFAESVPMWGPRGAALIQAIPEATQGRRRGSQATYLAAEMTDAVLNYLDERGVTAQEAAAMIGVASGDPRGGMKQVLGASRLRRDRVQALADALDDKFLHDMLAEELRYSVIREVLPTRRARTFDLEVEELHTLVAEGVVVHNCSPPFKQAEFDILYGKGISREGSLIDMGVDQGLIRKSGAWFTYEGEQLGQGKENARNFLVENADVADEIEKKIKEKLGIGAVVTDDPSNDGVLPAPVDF
Arbovirus inh: antivirals against arbovirus infection, primary screen, cell-based, full library, 10K replicate subset; arbovirus infection cell-based antiviral screen; actives 0.37% (n = 200,000); inhibition, % at 10 µM; AID 1251, 2008;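 active = inhibition from about 30%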;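 also: bluetongue infection of BSR cells; cell survival read as ATP light after 72 h; 0% = infected wells without compound and 100% = uninfected wells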
Arbovirus inh repeat: also measured in Arbovirus inh; calls as there; inhibition, %; measured here: 10K subset replicate screen; many hits read low in the repeat;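 first of two repeat runs on a subset; 0% = infected and 100% = uninfected wells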
The depositor's hits bear a star; ? = inconclusive; nt = not tested or not shown. Some of the compounds tested; rates above refer to the full screens.

The first 3 records (preview)
SMILES	YopH PTP inh	Mtb H37Rv	Mtb betalactam	RecA splice inh	Arbovirus inh	others
O=C(Cn1cnc2ccccc2c1=O)NCC(=O)N1CCN(Cc2ccc3c(c2)OCO3)CC1	-5	7%	2	nt	1
COc1cc(OC)cc(C(=O)NCC2CCCN(Cc3cccc(C(C)=O)c3)C2)c1 (stereo not given)	nt	nt	-1	-2.0	nt
C/C(=N\NC(=O)c1cccc(O)c1)c1ccc(NC(=O)Cc2ccccc2)cc1	nt	nt	-11	-1.4	nt

Main list, from the start:
SMILES	YopH PTP inh	Mtb H37Rv	Mtb betalactam	RecA splice inh	Arbovirus inh	others
O=C(Cn1cnc2ccccc2c1=O)NCC(=O)N1CCN(Cc2ccc3c(c2)OCO3)CC1	-5	7%	2	nt	1
COc1cc(OC)cc(C(=O)NCC2CCCN(Cc3cccc(C(C)=O)c3)C2)c1 (stereo not given)	nt	nt	-1	-2.0	nt
C/C(=N\NC(=O)c1cccc(O)c1)c1ccc(NC(=O)Cc2ccccc2)cc1	nt	nt	-11	-1.4	nt
CCn1cc(C(=O)NCc2ccccc2OC)c(=O)c2cc(S(=O)(=O)N(C)C)ccc21	-22	-10%	-3	0.5	-7	Arbovirus inh repeat=14
O=C(NC(=S)Nc1ccc(N2CCCCC2)c(Cl)c1)c1ccc2c(c1)OCCO2	-27	nt	76	4.9	8
CCOC(=O)c1ccc(Oc2cc(C)nc(SC)n2)cc1	5	-3%	2	2.4	-14
CCOc1ccc(NS(=O)(=O)c2ccc(OC)c(NC(=O)c3ccc4c(c3)OCCO4)c2)cc1	-26	6%	-9	3.6	-13
C=CCN1CCN(C(c2ccc(Cl)cc2)c2nnnn2CCc2ccc(OC)c(OC)c2)CC1 (stereo not given)	-40	5%	-7	1.3	9
O=C(NCCN1CCOCC1)c1cc(Cl)ccc1Cl	nt	nt	-5	2.7	nt
CCOC(=O)C1CCN(C(=O)Nc2ccc3c(c2)nc(C)n3C)CC1	-29	-5%	4	1.5	7
Cc1nc(C)c(-c2csc(Nc3cccc(O)c3)n2)s1	nt	17%	3	1.9	-10
COc1ccc(CNC(=O)c2cc(SC)ccc2Cl)cc1OC	nt	5%	-1	-0.2	0

Gathered by group: the entries above containing four or more nitrogen atoms
SMILES	YopH PTP inh	Mtb H37Rv	Mtb betalactam	RecA splice inh	Arbovirus inh	others
O=C(Cn1cnc2ccccc2c1=O)NCC(=O)N1CCN(Cc2ccc3c(c2)OCO3)CC1	-5	7%	2	nt	1
C=CCN1CCN(C(c2ccc(Cl)cc2)c2nnnn2CCc2ccc(OC)c(OC)c2)CC1 (stereo not given)	-40	5%	-7	1.3	9
CCOC(=O)C1CCN(C(=O)Nc2ccc3c(c2)nc(C)n3C)CC1	-29	-5%	4	1.5	7

Next entries
SMILES	YopH PTP inh	Mtb H37Rv	Mtb betalactam	RecA splice inh	Arbovirus inh	others
O=C(Nc1cccc(S(=O)(=O)N2CCCCC2)c1)c1cnccn1	nt	-3%	4	2.1	3
COc1ccc(NC(=O)c2cc(S(=O)(=O)N3CCCCC3)ccc2OC)cc1	nt	nt	3	-1.6	nt
CC(=O)c1ccc(N2CCN(C(=O)CCc3ccccc3)CC2)cc1	nt	nt	0	-1.7	nt
CC(C)Oc1ccc(C(=O)Nc2nnc(C3=COCCO3)o2)cc1	nt	nt	90	-0.1	nt
C=CCN(C(=O)CN1CCCCC1)c1nc(-c2ccccc2)cs1	nt	nt	0	-1.0	nt
CCOc1ccc(-c2nc3n(c(=O)c2C#N)CCS3)cc1	nt	-10%	4	-2.5	-4
COc1ccc(-c2nc3ccccc3n2OCC(=O)O)cc1	nt	4%	4	1.1	0
CC(C)(C)c1cnnn1-c1ccc(/C=N/Nc2ccc([N+](=O)[O-])cc2)cc1	-29	0%	8	-2.9	-6
COc1ccc2nc(/C(C#N)=C\c3ccc(C(=O)O)cc3)[nH]c2c1	nt	3%	-5	-71	-2
CS(=O)(=O)NCC(c1cccnc1)N1CCN(c2ccc(F)cc2)CC1 (stereo not given)	22	-6%	nt	-2.2	8
CCC(=O)Nc1c(C)ccc2nsnc12	-13	-4%	6	1.6	2
COc1ccc(-c2cn(CCCOCc3ccccc3)nn2)cc1	nt	nt	-6	0.0	nt

Not a retest: 4 of the compounds above.
SMILES	YopH PTP inh	Mtb H37Rv	Mtb betalactam	RecA splice inh	Arbovirus inh	others
O=C(Cn1cnc2ccccc2c1=O)NCC(=O)N1CCN(Cc2ccc3c(c2)OCO3)CC1	-5	7%	2	nt	1
COc1cc(OC)cc(C(=O)NCC2CCCN(Cc3cccc(C(C)=O)c3)C2)c1 (stereo not given)	nt	nt	-1	-2.0	nt
C/C(=N\NC(=O)c1cccc(O)c1)c1ccc(NC(=O)Cc2ccccc2)cc1	nt	nt	-11	-1.4	nt
CCn1cc(C(=O)NCc2ccccc2OC)c(=O)c2cc(S(=O)(=O)N(C)C)ccc21	-22	-10%	-3	0.5	-7	Arbovirus inh repeat=14

The list goes on:
SMILES	YopH PTP inh	Mtb H37Rv	Mtb betalactam	RecA splice inh	Arbovirus inh	others
COc1ccc(CCNC(=O)C(=O)Nc2ccc3c(c2)OCO3)cc1OC	nt	-5%	-1	-2.2	-4
CCN(CC)C(=O)/C(=C/c1ccc2c(c1)OCO2)NC(=O)c1ccc(Br)cc1	-39	9%	10	nt	-4
COCCCNC(=O)CNC(=O)c1cn(-c2ccccc2OC)c(=O)c2ccccc12	nt	-10%	1	-0.7	0
COc1ccccc1N1CCN(C(=O)c2cccs2)CC1	nt	nt	5	-2.2	nt
O=C(CCSc1ccccc1)NCCSCc1ccco1	-15	1%	3	-1.0	-2
O=C(CSc1nc2sc3c(c2c(=O)n1-c1ccccc1)CCCC3)N/N=C/c1ccccc1C(=O)O	nt	nt	1	-2.8	nt
O=C(CCCN1C(=O)/C(=C\c2ccccc2)SC1=S)Nc1ccc(O)cc1C(=O)O	nt	nt	-2	41*	nt
COC(=O)C1=C(c2cc3ccccc3o2)C[C@@H]2CC[C@H]1N2C(=O)NCc1ccc(C(F)(F)F)cc1	nt	14%	-5	-1.4	nt
O=C(CCCCCn1c(=S)[nH]c2ccc(N3CCOCC3)cc2c1=O)NCc1cccc(Cl)c1	nt	4%	3	-12	-11
CN(C)S(=O)(=O)c1ccc(C(=O)OCC(=O)Nc2sc3c(c2C#N)CCCCC3)cc1	-28	-1%	-1	0.4	-11
O=C(c1ccccc1)N1N=C(c2ccccc2)CC1(O)C(F)(F)F (stereo not given)	nt	nt	14	3.3	nt
N#CC1=C(N)Oc2n[nH]c(-c3ccccc3)c2C1c1cccc(OC(=O)N2CCOCC2)c1 (stereo not given)	-6	-2%	-2	68*	-2	Arbovirus inh repeat=-6
CCOC(=O)c1ccccc1NC(=O)C1CC(=O)N(C(C)(C)C)C1 (stereo not given)	nt	nt	-3	0.6	nt
CC(=O)c1cccc(NC(=O)c2c(C)nn(-c3ccccc3)c2Cl)c1	nt	-1%	-5	-2.1	0
CCc1nnc(NS(=O)(=O)c2ccc(NC(=O)/C=C/c3ccc(F)cc3)cc2)s1	nt	-9%	30	3.3	20
CCOC(=O)c1ccc(NC(=S)N(CCN(C)C)C(C)c2ccncc2)cc1 (stereo not given)	nt	nt	-2	-1.5	nt
C/C(CC(=O)NC12CC3CC(CC(C3)C1)C2)=N\NC(=O)c1ccc(C)cc1	nt	-7%	4	1.0	-5
NC(=O)COC(=O)c1ccc(-c2ccc(O)cc2)cc1	nt	-1%	-7	1.6	nt
COc1ccc(NC(=O)C2CCCN(S(=O)(=O)c3cccnc3)C2)cc1OC (stereo not given)	nt	-9%	-9	0.5	nt
O=C(COC(=O)Cc1ccc(Cl)cc1)Nc1ccccc1-c1ccccc1	-24	8%	2	11	-6
O=C(CSC1=NCCN1)Nc1ccccc1[N+](=O)[O-]	nt	2%	-1	3.0	8
COc1ccc(N2C(=O)C(Cl)=C(N3CCCC(C)C3)C2=O)cc1 (stereo not given)	-8	-5%	21	12	10
N#C/C(=C\c1ccc(O)c(O)c1)C(=O)N1CCCC1	nt	-6%	-6	-1.0	-9
O=C(COC(=O)C1CC2C=CC1C2)Nc1ccccc1F (stereo not given)	nt	1%	-8	-0.9	10
Cc1noc(/C=C/N(C)C)c1S(=O)(=O)N1CCCC(C(=O)N2CCCCC2)C1 (stereo not given)	-31	-2%	1	3.3	-7	Arbovirus inh repeat=-20
CCOc1ccc(CNC(=S)N/N=C/c2ccc(OC)c(OC)c2)cc1	-24	-1%	11	-3.7	-7
CCOC(=O)c1c(C)[nH]c(C(=O)CSc2ccc(Cl)cc2)c1C	-24	4%	4	-1.2	-4
COc1ccc(-n2nnnc2SCC(=O)Nc2ccc3c(c2)OCCO3)cc1OC	-32	-4%	-1	0.1	-7
NS(=O)(=O)c1ccc(CCNC(=O)Cc2ccc(Cl)cc2)cc1	nt	nt	-1	-5.2	nt
O=C(CCn1nnc2ccccc21)Nc1nnc(COc2ccc(F)cc2)s1	-31	0%	0	-0.2	-4
CCNC(=S)N1C2CCC1CC(NC(=O)Nc1ccc(C(=O)OCC)cc1)C2 (stereo not given)	nt	5%	6	0.9	14
Clc1cccc2c3c([nH]c12)CCNC3	nt	nt	1	-2.0	nt
COc1ccc(N(C(=O)c2ccco2)C(C(=O)NC2CCCC2)c2ccc(N(C)C)cc2)cc1 (stereo not given)	-5	-11%	-5	-1.5	-9
CC(=O)CC(c1ccccc1)S(=O)(=O)c1ccc(C)cc1 (stereo not given)	-26	-12%	-9	2.3	4
COc1ccc(OC)c(NC(=O)CCN2C(=O)c3ccccc3C2=O)c1	nt	nt	-6	0.0	nt
COCCNC(=S)N/N=C(\C)c1ccc2cc(OC)ccc2c1	-17	?	87	5.3	-5
COc1cc2c(cc1OC)CN(c1ccc(C(N)=O)cc1[N+](=O)[O-])CC2	nt	nt	-4	-1.0	nt
COc1ccc(-c2c[n+]3c(n2-c2ccc(C)cc2)CCCCC3)cc1	nt	-6%	-2	-2.7	nt
Cc1ccc(CNCCCSc2nc(C)cc(C)n2)cc1	nt	nt	-8	3.1	nt
Clc1ccccc1CSc1nnc(-c2ccco2)c(-c2ccco2)n1	-22	-10%	22	28	10
CC1Cc2ccccc2N1S(=O)(=O)c1cccc(C(=O)NC2CC2)c1 (stereo not given)	-26	0%	7	3.1	9
CN(C)CCCNC(=O)c1ccccn1	5	-12%	-4	-0.6	5
CCc1ccc2c(CN3CCN(S(=O)(=O)c4cccs4)CC3)cc(=O)oc2c1	-10	17%	-2	0.0	-2
Cc1ccc(-n2ncc3c(SCC(=O)NNC(=O)c4ccco4)ncnc32)cc1	nt	-2%	-6	-7.1	-4
COc1ccccc1N1C[C@@H]2C[C@@H](c3ccco3)N3CCC[C@@]23C1=O	nt	7%	4	-0.4	-4
CCSC1=C(C#N)C(c2cccc(OC)c2)CC(=O)N1 (stereo not given)	-29	-4%	3	7.1	0
Cc1cc(C)cc(OCC(=O)OC(C)C(=O)Nc2ccc(Cl)cn2)c1 (stereo not given)	nt	nt	25	0.6	nt
CN(C)C(=O)c1cc(S(=O)(=O)N(C)C)c(Cl)cc1N1CCCC1	-32	-10%	4	-0.2	-2
C#CCNc1nc(CC)nc2c1nnn2Cc1ccccc1F	-53	-3%	-4	-1.4	2
